# Screens deposited in PubChem BioAssay by Johns Hopkins Ion Channel Center.
# KCNQ2 pot – potentiators of rat KCNQ2 potassium channel; CHO-K1 KCNQ2, FluxOR thallium flux fluorescence; active compounds read high; B-score at 10 µM; O88943; hit rate 0.54% among 310,000;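 active = fluorescence ratio B-score at least 3 SD of library B-scores, with initial fluorescence B-score within 3 SD, cut at about 5.3 in these data; same plate scores as AID 2156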;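 also: B-score of peak minus minimum over baseline fluorescence ratio after K+ and Tl+ stimulus; positive B-score means potentiation of KCNQ2 with more thallium influx and brighter signal; only the inactives scoring about 0 or higher are listed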
# Target sequence (O88943 whole entry, looked up): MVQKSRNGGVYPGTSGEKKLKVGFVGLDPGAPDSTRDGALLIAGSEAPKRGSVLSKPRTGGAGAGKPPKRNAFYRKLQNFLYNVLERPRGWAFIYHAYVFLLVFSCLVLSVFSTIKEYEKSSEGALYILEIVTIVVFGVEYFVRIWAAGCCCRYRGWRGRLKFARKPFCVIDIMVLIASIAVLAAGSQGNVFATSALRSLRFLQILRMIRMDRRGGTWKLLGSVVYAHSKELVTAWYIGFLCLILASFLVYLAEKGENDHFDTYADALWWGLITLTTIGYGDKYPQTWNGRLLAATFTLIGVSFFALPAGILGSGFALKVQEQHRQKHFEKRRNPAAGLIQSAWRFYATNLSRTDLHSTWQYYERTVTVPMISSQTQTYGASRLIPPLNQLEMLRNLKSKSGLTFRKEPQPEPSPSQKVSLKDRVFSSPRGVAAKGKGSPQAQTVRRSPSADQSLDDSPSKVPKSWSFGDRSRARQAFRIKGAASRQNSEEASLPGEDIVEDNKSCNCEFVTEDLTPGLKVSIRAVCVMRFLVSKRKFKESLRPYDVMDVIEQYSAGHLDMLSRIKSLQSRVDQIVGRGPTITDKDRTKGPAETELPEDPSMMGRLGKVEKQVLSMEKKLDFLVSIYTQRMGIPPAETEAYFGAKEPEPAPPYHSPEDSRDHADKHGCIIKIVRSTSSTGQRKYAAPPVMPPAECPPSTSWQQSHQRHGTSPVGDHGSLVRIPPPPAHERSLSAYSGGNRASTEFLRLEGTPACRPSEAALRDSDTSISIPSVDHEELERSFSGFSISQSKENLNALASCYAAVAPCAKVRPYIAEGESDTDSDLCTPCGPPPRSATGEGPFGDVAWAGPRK
# KCNQ2 pot baseline – recorded beside KCNQ2 pot, whose call it bears; B-score; compound at 10 µM; measured here: initial fluorescence intensity artifact check;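 brightness before thallium and not channel activity; 0 = typical well and far values either way flag optical interference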
# Starred values were filed as active, the others as inactive.
SMILES,KCNQ2 pot,KCNQ2 pot baseline
Cc1c(Cl)cccc1NC(=O)COC(=O)CCc1nc2ccccc2n1-c1ccccc1,0.43,-1.8
CC(=O)Nc1nc2ccccc2n1Cc1ccc(Cl)cc1,0.23,-0.16
CC(=O)C1C(c2ccco2)c2c(noc2C)CC1(C)O (stereo not given),0.64,0.66
CC(NCC1(N2CCOCC2)CCCCC1)C(=O)N1CCc2ccccc21 (stereo not given),0.21,-0.31
CCCCNC(=O)CSc1nc2ccc(Nc3nc(N4CCOCC4)nc(N4CCOCC4)n3)cc2s1,1.3,-1.5
CCOC(=O)c1c(/N=C/c2cc(C)ccc2O)sc2c1CCN(C)C2,1.4,-2.2
CN(C)CCCOc1ccc(Cl)cc1Br,1.8,0
CCC(CC)CN1C(Nc2ccccc2)=NC[C@@H]1C,0.75,-0.46
CSc1ncccc1C(=O)N1CCCC(Nc2ccc(C)c(C)c2)C1 (stereo not given),1,-0.07
COc1cc(NC2=CC(=O)CC(C)(C)C2)cc(OC)c1,0.69,-1.6
O=C(N/N=C/C(Br)=C/c1ccccc1)c1ccccc1F,0.38,0.02
O=C(Nc1nnc(CCc2ccccc2)s1)C1CCCO1 (stereo not given),0.33,-0.31
CCOC(=O)Cn1c(=O)c(C#N)cn(C(C)C)c1=O,0.19,0.73
COc1cccc(/C=N/NC(=O)c2cc3c(OC)ccc(OC)c3[nH]2)c1O,0.83,1.4
CC(=O)N1CCc2cc(S(=O)(=O)CCC(=O)O)ccc21,0.96,1
O=c1c(O)c(-c2cccs2)oc2ccccc12,13*,2.3*
CC(NC(=O)CCC1COc2ccccc2O1)c1ccccc1 (stereo not given),0.56,0.94
C=CCN1CCN(C(=O)c2oc3ccccc3c2C)CC1,0.74,2
N#CCC(=O)N/N=C/c1coc2ccccc2c1=O,0.72,0.01
O=C(NCc1ccccn1)C1Nc2ccc(C(F)(F)F)cc2C2C=CCC12 (stereo not given),0.69,-0.8
COc1ccc(N2CC(C)Cn3c2nc2c3c(=O)n(Cc3ccccc3)c(=O)n2C)c(OC)c1 (stereo not given),0.78,0.73
CCOC(=O)C1CCN(C(=O)c2cc(OCC)c(OCC)c(OCC)c2)CC1,1.6,-0.38
CCOC(=O)C1CCCN(C(=O)Nc2c(-c3ccccc3)noc2C)C1 (stereo not given),1.3,0.07
CC1(C)C[C@@H](O)CC2(C1)C[C@]1(C)CC(O)[C@H]2C(C)(C)C1 (stereo not given in full),1.4,-0.01
Cc1ccc(SCC(=O)OC(C)C(=O)NC2(C#N)CCCCC2)cc1 (stereo not given),0.11,0

# Six entries picked at random from the list so far:
SMILES,KCNQ2 pot,KCNQ2 pot baseline
CCC(CC)CN1C(Nc2ccccc2)=NC[C@@H]1C,0.75,-0.46
CSc1ncccc1C(=O)N1CCCC(Nc2ccc(C)c(C)c2)C1 (stereo not given),1,-0.07
CC(NCC1(N2CCOCC2)CCCCC1)C(=O)N1CCc2ccccc21 (stereo not given),0.21,-0.31
CC(=O)C1C(c2ccco2)c2c(noc2C)CC1(C)O (stereo not given),0.64,0.66
Cc1ccc(SCC(=O)OC(C)C(=O)NC2(C#N)CCCCC2)cc1 (stereo not given),0.11,0
COc1cc(NC2=CC(=O)CC(C)(C)C2)cc(OC)c1,0.69,-1.6

# (more compounds)
SMILES,KCNQ2 pot,KCNQ2 pot baseline
COCCN(C(=O)COC(=O)CC(C)c1ccccc1)c1c(N)n(Cc2ccccc2)c(=O)[nH]c1=O (stereo not given),0.75,2.2
CCOc1ccc2c(c1)cc(CN(C(=O)CC)C1CCCCC1)c1nnnn12,0.05,-2.5
CN(c1ccccc1)S(=O)(=O)c1cccc(NC(=O)C2CC(=O)N(Cc3ccccc3)C2)c1 (stereo not given),1.6,-0.74
O=C(CSc1nc2c(oc3ccccc32)c(=O)n1CC1CCCO1)NCc1ccc(F)cc1 (stereo not given),0.61,0.09
COC(=O)c1ccccc1Oc1cnc2ccccc2n1,1,-0.12
COc1ccccc1C(=O)Nc1cccc2nc(C)ccc12,0.8,-0.83
CC1(C)CC(=O)C(C(C2=C(O)CC(C)(C)CC2=O)c2cccnc2)C(=O)C1 (stereo not given),0.16,-0.39
CCOC(=O)c1sc2ncnc(Nc3cccc(C(=O)O)c3)c2c1C,0.01,1
CCOC(=O)c1c(-c2ccco2)csc1NC(=O)COC(=O)c1cnc(C)cn1,1.1,1.6
CCCNC(=O)Nc1ccsc1C(=O)OC,0.76,0.78
O=C(Nc1ccc2c(c1)OCCO2)c1ccc(Br)s1,2,0.7
COc1ccc(N2CCN(c3cc(C)nc4ccc(OC)cc34)CC2)cc1,1.1,-2.5
CN(C)C(=O)c1ccc(NC(=O)c2ccccc2-c2ccccc2)cc1,0.38,0.47
COc1ccc(CC(=O)Nc2ccc(/C(C)=N/NC(=O)c3ccc(OC)cc3OC)cc2)cc1,0.33,0.16
Cc1cccn2c(=O)c3cc(C(=O)NC4CCCC4)sc3nc12,0.05,0.67
O=C(OCC(=O)N1c2ccccc2Sc2ccccc21)c1cccnc1,0.46,-0.64
O=S(=O)(Nc1ccc(N2CCOCC2)cc1)c1ccccc1,0.38,0.01
Cc1c(Cl)cccc1NC(=S)Nc1ccccn1,0.46,0.46
CC(=O)N=c1c(C#N)cc2c(=O)n3ccccc3nc2n1Cc1ccccc1,0.8,-0.06
Cc1ccc(S(=O)(=O)N(CC(=O)NC2CCCCCC2)c2ccccc2F)cc1,0.14,0.67
O=C1C=C(N2CCN(C(=O)c3ccccc3)CC2)C2(CCCCC2)O1,0.27,1.1
CN1CC(=O)N2C(c3cccc([N+](=O)[O-])c3)c3[nH]c4ccccc4c3C[C@H]2C1=O (stereo not given in full),0.5,-0.08
CCCCCC(=O)Oc1cccc(N2C(=O)C3CCCCC3C2=O)c1 (stereo not given),0.95,-0.91
CC1CCN(S(=O)(=O)c2nnc(NC(=O)c3cccc(Cl)c3)s2)CC1,0.72,-0.52
Cc1cccc(C)c1NC(=O)C1CCN(C(=O)c2cccs2)CC1,1.2,0.45

# A second format for some results above.
SMILES | KCNQ2 pot | KCNQ2 pot baseline
COc1ccccc1C(=O)Nc1cccc2nc(C)ccc12 | 0.8 | -0.83
CCOC(=O)c1sc2ncnc(Nc3cccc(C(=O)O)c3)c2c1C | 0.01 | 1
Cc1c(Cl)cccc1NC(=S)Nc1ccccn1 | 0.46 | 0.46
CC1CCN(S(=O)(=O)c2nnc(NC(=O)c3cccc(Cl)c3)s2)CC1 | 0.72 | -0.52
Cc1cccc(C)c1NC(=O)C1CCN(C(=O)c2cccs2)CC1 | 1.2 | 0.45
O=C(CSc1nc2c(oc3ccccc32)c(=O)n1CC1CCCO1)NCc1ccc(F)cc1 (stereo not given) | 0.61 | 0.09
CN(C)C(=O)c1ccc(NC(=O)c2ccccc2-c2ccccc2)cc1 | 0.38 | 0.47

# The results go on.
SMILES,KCNQ2 pot,KCNQ2 pot baseline
COc1ccc(NC2(c3ccccc3)OC(=O)c3ccccc32)cc1 (stereo not given),0.03,-1.3
Cc1ccc(CNC(=O)CN2C(=O)COc3ccc(S(=O)(=O)N4CCC(C)CC4)cc32)o1,0.94,-0.98
Cc1nc(CNC(=O)c2ccccc2OC2CCN(S(C)(=O)=O)CC2)cs1,0.43,-0.14
O=C(O)C1Cc2ccccc2CN1S(=O)(=O)c1ccc(Cl)cc1 (stereo not given),1.9,-1.4
CCSc1nc2ccccc2n1C(=O)/C=C/c1ccc(OC)c(OC)c1,0.68,0.46
O=C(CC(=O)NCc1ccc(Cl)cc1)NCc1ccccc1,0.7,0.17
C/C(=N/NC(=O)CN1CCN(S(=O)(=O)c2ccc(Br)cc2)CC1)c1ccncc1,0.17,-0.21
Cc1nc(C)n(CC(=O)N2CCCC(C(=O)c3ccc(C(F)(F)F)cc3)C2)n1 (stereo not given),0.9,-0.64
CSc1nsc(SCC(=O)Nc2ccc3c(c2)OCCO3)n1,0.99,0.84
O=C(O)CCCN1C(=O)C2C3CC(C2C1=O)C1C(c2ccccc2)c2sc(=O)[nH]c2SC31 (stereo not given),1.8,-2.2
N#Cc1c(N2CCOCC2)nc(N2CCCCC2)c2c1CCN(C1CCCCC1)C2,11*,-1.3*
Cc1ccc2c(c1)c1nnc(SCC(=O)Nc3ccccc3C(F)(F)F)nc1n2CC(=O)O,0.42,-0.51
Cn1c2c(c(=O)n(C)c1=O)C(c1cccc([N+](=O)[O-])c1)Nc1ccccc1O2 (stereo not given),0.73,-3.1
O=C(Cc1ccccc1)Nc1nccs1,0.41,-0.23
CC(C)(C)CN1CCC(n2nccc2NC(=O)c2ccccc2Cl)CC1,0.78,0.79
O=C(O)CCNC(=S)Nc1cccc(F)c1,1.2,-0.75
CC1(c2ccccc2)NC(=O)N(CC(=O)Nc2cc3c(cc2Br)OCCO3)C1=O (stereo not given),0.29,-0.75
COC(=O)c1ccc(COC(=O)CNC(=O)c2ccc(-c3ccccc3)cc2)cc1,2,0.07
CCc1ccc(NC(=O)CSc2nnc(-c3ccccn3)n2C)cc1,0.13,1.2
Cc1sc2ncnc(Sc3nnc4sc5ccccc5n34)c2c1C,0.38,-1.8
COc1cc(COCC(O)CN2CCN(Cc3ccccc3)CC2)cc(OC)c1OC (stereo not given),1.6,-1.1
O=C(O)CCSCC(=O)c1ccc2c(c1)OCCO2,0.74,-1.1
O=c1[nH]c(=S)n(-c2cccc(C(F)(F)F)c2)c(O)c1C=NCCN1CCNCC1,2.7,1.4
CC(C)[C@H](NC(=O)C1CCN(S(=O)(=O)c2ccccc2)CC1)C(=O)NCc1ccc(F)cc1,0.95,0.01
O=C(CC1NCCc2ccccc21)Nc1ccccc1Cl (stereo not given),1.2,-0.01
SMILES,KCNQ2 pot,KCNQ2 pot baseline
CC(=O)SC1CC(=O)N(c2c(C)cccc2C)C1=O (stereo not given),0.64,0.69
COc1ccccc1C(=O)N/C(=C\c1cn(S(=O)(=O)N(C)C)c2ccccc12)C(=O)NCCN1CCOCC1,0.03,-0.81
COc1cccc(/C=N/NC(=O)c2cccc([N+](=O)[O-])c2)c1OS(=O)(=O)c1ccccc1,0.02,-1.9
COc1ccc(/C=C/C(=O)NCCCN2CCCCCC2)cc1,0.48,0.08
COc1cccc(/C=C2\Sc3ccc(C(=O)NCc4cccnc4)cc3N(C)C2=O)c1,2.5,-1.1
Cc1nnc(NC(=O)CSc2nc3c(c(=O)n2C)SC(C)C3)s1 (stereo not given),0.48,0.44
C=CCn1c(OCc2ccccc2)n[nH]c1=S,1.1,0
Cc1ccc2c(c1)N(C(=O)CCC(=O)N1CCOCC1)CCO2,1.2,0.12
CC(=O)c1cc(F)c(N2CCN(C(=O)COc3ccc(F)cc3)CC2)cc1C,0.92,-1.7
Cc1ccc(NC(=O)CCc2nnc(SCC(=O)Nc3ccccc3C)n2C)cc1Cl,0.32,1.3
O=C(O)CNS(=O)(=O)c1c(Cl)cccc1Cl,0.37,-0.93
CC(=O)N1CCN=C1SCc1ccc(C)cc1,1.9,-0.21
CCOC(=O)C1CCN(CCC(=O)Nc2ccc(F)cc2)CC1,1.2,-1.6
CCOC(=O)c1ccc(N(C(=O)CNC(=O)c2ccco2)C(C(=O)NCC2CCCO2)c2ccc(OC)c(OC)c2)cc1 (stereo not given),0.01,0
CCC(=O)N1CC2(C)CN(C(=O)CC)CC(C)(C1)C2,0.43,-0.62
COC(=O)c1ccc(S(=O)(=O)NCc2ccccc2)n1C,1.9,-1.7
Cn1c(=O)[nH]c(=O)c2c1nc(N1CCCCC1)n2CC(O)CN1CCCCC1 (stereo not given),2,1.8
Cc1nc(SCC(N)=O)c(C#N)c(C)c1C,0.88,-0.13
CC(=O)c1cc(C#N)c(N2CC(C)OC(C)C2)nc1C (stereo not given),0.66,-0.77
CCCc1c(O)nc(SCc2ccccc2)[nH]c1=O,1.4,0.04
Cc1cccc(NC(=O)CSC(N)=O)c1C,9.5*,2.6*
O=C(OCCN1CCOCC1)c1ccccc1,0.19,-1.4
COc1cc(NC(=O)CN2CCC(C)CC2)c(C)cc1[N+](=O)[O-],0.7,-1
CCn1c(C)nnc1SCC(=O)Nc1ccc2c(c1)OCCO2,1.4,0.54
CCOc1ccc(NC(=S)NS(=O)(=O)c2cc(Br)ccc2OCC)cc1,2.1,0.07
SMILES,KCNQ2 pot,KCNQ2 pot baseline
CC(C)(CNC(=O)Cc1ccc(Cl)cc1Cl)N1CCCCC1,1.5,0.13
COc1ccc(Nc2nc3c([nH]2)c(=O)[nH]c(=O)n3C)cc1,0.01,0.35
C#CC[N+]1(CC#Cc2cccc3ccccc23)CCOCC1,1.9,0.03
O=Cc1ccc(OCc2ccccn2)cc1,0.96,-0.48
Cc1cc(O)cc(C)c1NS(=O)(=O)c1ccc2ccccc2c1,2.7,-0.01
COc1ccc(C(=O)N/C(N)=N/c2nc3ccccc3o2)cc1,0.98,-0.51
O=C(COC(=O)c1cc(S(=O)(=O)N2CCCCC2)ccc1Cl)NCc1ccco1,0.21,2
CS(=O)(=O)N(CC(=O)N1CCN(Cc2ccccc2)CC1)c1cccc(Cl)c1,0.01,-1.5
O=[N+]([O-])c1cccc(-c2cnc3ccccc3n2)c1,0.56,0.04
Cc1cccc(NS(=O)(=O)c2ccc(Cl)cc2)n1,0.82,-0.02
O=C(Nc1cccc(Cl)c1)c1cc(S(=O)(=O)NCCc2ccc(Cl)cc2)ccc1F,0.77,-4.1
c1cc(C2CCN(Cc3nc(-c4ccc5c(c4)OCO5)no3)CC2)ccn1,1.5,0.07
Cn1c(N)c(C(=O)COC(=O)C2(c3ccc(F)cc3)CCCC2)c(=O)n(C)c1=O,0.66,2.9
Cc1ccc(-c2nn3c(C)nnc3c3ccccc23)cc1S(=O)(=O)NCc1ccco1,1.5,0
CC(C)Sc1nc2c(cnn2-c2ccc(Cl)cc2)c(=O)[nH]1,0.87,-0.03
O=C(OCCOCCN=C1NS(=O)(=O)c2ccccc21)c1ccc(F)cc1,2.7,0.31
NS(=O)(=O)c1ccc(CCNC(=O)c2ccc3c(c2)OCO3)cc1,0.51,0.36
COc1cccc(NC(=O)COc2cccc(-n3cnnn3)c2)c1,1.2,-2

# Some of the compounds tested; count on the stated rates, not on these rows.
